Bioassay records: PubChem, National Center for Advancing Translational Sciences (NCATS)
miR-21 FLuc: raises the signal of a miR-21 reporter; HeLa miR-21 FLuc reporter, luciferase, 48 h; Potency, µM (doses to about 38.3 µM), for inactives: at the highest dose reporter change, positive = more light; 340,000 tested, under 10 active; AID 2288; active = well fitted rising curve with a large enough effect; inconclusive = small, poorly fitted or top-dose-only effect; inactive = no such curve, though single readings can be large or run the other way;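 note: % of control where 0% means no effect; miR-21 action dims this reporter so a rising signal means less miR-21 action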
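HeLa miR-21-FLuc reporter line, endogenous miR-21; 2000 cells/well in DMEM/10% FBS; compound titration up to ~40uM final, 48 h, 37 degree Celsius; luciferase detection reagent, 15 min lysis, CCD luminescence.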
Rango complex inh: inhibitors of Rango-importin beta complex formation; Q14974; Rango CFP/YFP FRET sensor + importin beta, 45 min; Potency, µM (highest dose often 92.2 µM), for inactives: at the highest dose inhibition of complex formation; hit rate 0.031% among 340,000; AID 540263; active = rising FRET ratio curve, often small or poorly fitted; inconclusive = mostly compound fluorescence or quenching in the first reads; inactive = flat curves in all reads;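 note: potency is the fitted concentration of half-maximal effect; 0% = DMSO wells and 100% = buffer wells lacking importin beta; nearly all actives have a fitted effect of over 15% in size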
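FRET biosensor (snurportin 1 IBB flanked by EYFP and cerulean), 50 nM, with compound 5 min, then 0.125 microM importin beta in PBS, 1 mM DTT, 0.02% Tween-20, 0.1% BSA. CFP/YFP ratio read after 45 min at room temperature; pre-read flags interference.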
Rango dissoc inh: inhibition of RanGTP-driven Rango-importin beta dissociation | Biochemical FRET Rango-importin beta, RanGTP-induced dissociation | Potency, µM (titrated, usually from 46.1 µM), for inactives: top-dose activity change, negative = inhibition | AID 540253 | hit rate 0.071% among 340,000; active means falling FRET ratio curve, often poorly fitted, with flat reads before Ran was added; inconclusive means other falling curves, or compound fluorescence or quenching; inactive means flat or rising ratio curve;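 note: potency is the fitted concentration of half-maximal effect; % of control where 0% means no effect; nearly all actives have a fitted effect of over 45% in size; -100% = wells without RanGTP and RCC1; the record marks most hits as doubtful in a second field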
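Compounds preincubate 5 min with complex of recombinant Rango and importin beta in PBS with 1 mM DTT. Ran (0.6 uM) loaded with 2 mM GTP plus 0.2 uM RCC1 starts dissociation; FRET is recorded 45 min later.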
GLA inh pH 4.5: inhibitors of human alpha-galactosidase A at pH 4.5; purified enzyme, 4-MU-alpha-Gal fluorescence, pH 4.5; 230,000 tested, under 10 active; AID 1467; activity change, negative = inhibition, % at 105 µM; P06280; inconclusive = small, poorly fitted or top-dose-only inhibition, or a rising curve; inactive = flat fitted curve, though single readings scatter; no compound was filed as active;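 note: 0% = full activity with enzyme and -100% = basal without enzyme; dose as in the result columns while the protocol names 77 µM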
Target sequence (P06280 whole entry, looked up): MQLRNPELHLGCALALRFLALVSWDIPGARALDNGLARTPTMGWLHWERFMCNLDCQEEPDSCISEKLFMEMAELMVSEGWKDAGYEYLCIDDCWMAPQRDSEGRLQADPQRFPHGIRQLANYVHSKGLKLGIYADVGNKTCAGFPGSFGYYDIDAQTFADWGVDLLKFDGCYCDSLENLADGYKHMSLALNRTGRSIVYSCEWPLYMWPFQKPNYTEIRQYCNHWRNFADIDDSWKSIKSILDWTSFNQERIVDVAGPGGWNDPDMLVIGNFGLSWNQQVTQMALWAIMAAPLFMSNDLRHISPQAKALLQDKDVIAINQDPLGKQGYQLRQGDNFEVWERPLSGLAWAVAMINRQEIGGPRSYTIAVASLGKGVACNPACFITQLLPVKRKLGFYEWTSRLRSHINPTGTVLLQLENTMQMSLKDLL
* = called active by the depositor; ? = inconclusive; nt = not tested or not shown; & = joins results of further samples. Only part of the results is shown; the hit share may differ from the screen's.

miR-21 FLuc	Rango complex inh	Rango dissoc inh	Compound	GLA inh pH 4.5
-53%	4.1%	5%	N/C(=N\OC(=O)c1ccc(Cl)cc1Cl)c1ccncc1	-10
?	-0.2%	0%	Cc1ccc(Nc2nc(N)nc(CCl)n2)c(C)c1	-8
-6%	0.4%	10%	Cc1ccc(C(=O)O/N=C2\CC3CCC2(C)C3(C)C)cc1 (centres undefined)	-13
-22%	0.5%	-10%	COc1cccc(N2CCN(C3CC(=O)N(c4cccc(Cl)c4)C3=O)CC2)c1 (centres undefined)	6
-42%	2.4%	0%	O=C(Cc1ccccc1[N+](=O)[O-])N1CCc2ccccc2C1	4
-3%	-0.1%	1%	O=C(NCC(=O)N1CCCC1C(=O)O)OC1CCCCC1 (centres undefined)	7
-59%	-3.3%	-1%	Cc1cccc(-n2c(C)cc(/C=N\NC(=O)c3ccco3)c2C)c1	4
-10%	-0.7%	-6%	CCN(CC)S(=O)(=O)c1ccc2c(c1)nc(CCC(=O)Nc1ccc3c(c1)OCO3)n2CC	6
2%	1.9%	-9%	CCOc1ccc(N(CC(=O)Nc2cccnc2)S(C)(=O)=O)cc1	6
3%	-0.7%	3%	Cc1cc(C(=O)NC2CCCc3c2cnn3-c2ccc(C)c(C)c2)no1 (centres undefined)	nt
1%	-1.0%	-6%	Cc1cccc(NC(=O)CCCn2cc([N+](=O)[O-])cn2)n1	2
nt	1.9%	6%	COc1ccc(NC(=O)COC(=O)CCc2ccc(S(=O)(=O)N3CCOCC3)cc2)c(OC)c1	nt
-6%	-0.1%	8%	CCOc1ccc(/C=c2\sc3nc(-c4ccco4)nn3c2=O)cc1OCC	-5
-6%	?	5%	COc1ccc(C(=O)Nc2nnc(-c3ccc(F)cc3)s2)c(OC)c1	nt
nt	?	-20%	O=C(c1cnn(C(=O)CN2CCCC2=O)c1)c1ccccc1O	nt
-1%	?	?	Cc1ccc(Cn2c(=N)c(C(=O)NCC3CCCO3)cc3c(=O)n4cccc(C)c4nc32)cc1 (centres undefined)	nt
3%	-1.9%	1%	CC1(C)CC(=O)C(/C=N/c2ncccc2C(=O)O)=C(O)C1	-6
-5%	-1.4%	1%	Cc1cc(C)c2c(CN3CCN(Cc4ccc5c(c4)OCO5)CC3)cc(=O)oc2c1	-3
-13%	-0.3%	-3%	O=C(Nc1ccccc1C(=O)NCC1CCCO1)c1ccccc1 (centres undefined)	2
14%	-0.7%	2%	CCCCNC(=S)NCC(c1ccccc1)c1c[nH]c2ccccc12 (centres undefined)	nt
9%	-1.8%	-26%	CS(=O)(=O)c1nc(S(=O)(=O)c2ccc(Cl)cc2)c(N2CCC3(CC2)OCCO3)s1	nt
3%	-1.7%	2%	Cc1ccc(C)c(NC(=O)CS(=O)(=O)c2cccc3nsnc23)c1	-2
1%	1.6%	38%	COc1ccc(Cl)cc1NC(=O)CNc1ccccc1N1CCOCC1	-10
-9%	-3.0%	-14%	CCOC(=O)Cc1nnc(NC(=O)c2ccccc2OCC)s1	-6
nt	1.0%	15%	O=C(Nc1cc(C(F)(F)F)ccc1N1CCOCC1)C1CC1	nt
14%	?	3%	CN(C)/C=C/C(=O)c1ccc2noc(-c3ccc(F)cc3)c2c1	nt
-2%	0.0%	-5%	CSc1ncccc1C(=O)OCC(=O)c1ccc(Br)s1	0
-6%	?	?	CC(=O)N(C(C)=O)N1C(=O)c2cccc3c(N4CCOCC4)ccc(c23)C1=O	0
1%	-0.6%	-1%	O=C(CC(C(=O)O)c1ccccc1)Nc1ccccc1 (centres undefined)	-5
-28%	-0.4%	4%	COC(=O)c1cc(Cl)c(NC(=O)c2ccco2)cc1OC	3
-12%	1.9%	13%	Cc1c(C)c2ccc(OCC(=O)NCCCn3ccnc3)c(C)c2oc1=O	nt
nt	-0.6%	-5%	COc1ccccc1N(C)S(=O)(=O)c1ccc(Cl)c(C(=O)NCc2cccnc2)c1	nt
0%	-5.0%	7%	Cc1cccc(C)c1OCc1nnc(SCC(=O)Nc2cccc(C(=O)N3CCOCC3)c2)n1C	-1
-6%	1.2%	-2%	COc1ccc(S(=O)(=O)NCc2ccc(C(=O)NCCCN3CCCC(C)C3)cc2)cc1 (centres undefined)	nt
-4%	0.6%	-3%	Cc1ccc(N(Cc2ccccc2)C(=O)c2cccc(F)c2)cc1	nt
-17%	-0.7%	3%	COc1ccc2c(Cl)c(-c3nnco3)sc2c1	-5
nt	-1.2%	-19%	Cc1ccc(NC(=O)C(c2ccccc2)N2CCN(CC(=O)NC3CC3)CC2)cc1 (centres undefined)	nt
2%	-0.2%	9%	CCOC(=O)c1ccccc1NCN1C(=O)CSC1=O	0
-13%	-0.5%	-5%	Cc1ccc(NC(=S)N(CCN(C)C)Cc2cc3cc(C)cc(C)c3[nH]c2=O)cc1	4
0%	1.1%	7%	Cc1ccc([C@@H]2[C@@H]3C(=O)N(C)C(=O)[C@@H]3[C@]3(C)C(=O)N(Cc4ccc(-c5ccccc5)cc4)CC(=O)N23)o1	nt
2%	3.7%	2%	COc1ccc(N2CCN(C(=O)[C@@H](NC(=O)c3cc(OC)cc(OC)c3)C(C)C)CC2)cc1	nt
-11%	-5.2%	-7%	CC1Cc2ccccc2N1C(=O)CCNS(=O)(=O)c1ccc2c(c1)CCC(=O)N2 (centres undefined)	-1
4%	-2.4%	15%	O=C(O)CCn1cc(C(=O)O)c(-c2ccccc2)n1	-8
25%	3.7%	1%	O=C(NCc1ccco1)c1ccc(S(=O)(=O)N2CCCc3ccccc32)cc1	-3
nt	-0.5%	-2%	Cc1cccc(NC(=O)CSCC(=O)N(C)Cc2ccc(Cl)c(Cl)c2)c1	nt
-33%	-1.6%	16%	COc1ccc(C2=NC(C)(C)Cc3cc(OC)c(OC)cc32)cc1	nt
16%	1.6%	9%	O=[N+]([O-])c1ccc(NC(=S)NCc2ccncc2)cc1	2
-3%	0.0%	-3%	Cc1cc(C)n(C(=O)COc2ccccc2[N+](=O)[O-])n1	-6
nt	4.0%	0%	CCN1C(=O)N[C@@H](CCc2ccccc2)[C@H](C(=O)OC)[C@H]1C	8
-7%	-0.4%	-7%	COCCNC(=O)COc1ccc(Nc2ccccc2)cc1	2
-14%	0.1%	25%	CN1C(=O)c2ccc(NC(=O)c3ccc(Cl)cc3Cl)cc2C1=O	nt
3%	-2.9%	-12%	CC1CN(C(=O)COC(=O)c2ccc(Cl)c(S(=O)(=O)N3CCCCC3)c2)CC(C)O1 (centres undefined)	-8
1%	2.6%	4%	CC(C)CCN1C(=O)c2ccc(-c3nc4ccccc4c(=O)o3)cc2C1=O	5
-28%	nt	nt	O=C(c1ccccc1)[C@H]1[C@H](c2ccccc2)[C@@]2(N=C(c3ccccc3)OC2=O)C2c3ccccc3C=NN21 (some centres undefined)	-5
-36%	0.0%	5%	Cc1ccnc(NC(=O)c2sc3cc(Cl)ccc3c2Cl)c1	0
-3%	-1.5%	-10%	CCOC(=O)C(=NC1CCS(=O)(=O)C1)NNc1ccc(Br)cc1 (centres undefined)	6
-3%	3.0%	-5%	Cc1cnc(NC(=O)CSc2nc3ccccc3c(=O)[nH]2)s1	2
nt	0.2%	1%	Cc1ccc(S(=O)(=O)N(C)CC(=O)NCC(=O)Nc2ccc(F)c(F)c2F)cc1	nt
-48%	1.4%	-17%	O=C(CSc1nnc(NC2CCCCC2)s1)Nc1ccc2c(c1)C(=O)c1ccccc1C2=O	2
9%	?	?	N#CC1=C(N)Oc2cc(O)ccc2C1c1ccc(Br)s1 (centres undefined)	nt

Shown with two lines to a compound: five of the compounds above.
The line under a structure holds: miR-21 FLuc | Rango complex inh | Rango dissoc inh | GLA inh pH 4.5
N#CC1=C(N)Oc2cc(O)ccc2C1c1ccc(Br)s1 (centres undefined)
  9% | ? | ? | nt
Cc1cc(C)n(C(=O)COc2ccccc2[N+](=O)[O-])n1
  -3% | 0.0% | -3% | -6
COc1ccc(N2CCN(C(=O)[C@@H](NC(=O)c3cc(OC)cc(OC)c3)C(C)C)CC2)cc1
  2% | 3.7% | 2% | nt
O=C(NCc1ccco1)c1ccc(S(=O)(=O)N2CCCc3ccccc32)cc1
  25% | 3.7% | 1% | -3
CC(C)CCN1C(=O)c2ccc(-c3nc4ccccc4c(=O)o3)cc2C1=O
  1% | 2.6% | 4% | 5

Later entries:
miR-21 FLuc	Rango complex inh	Rango dissoc inh	Compound	GLA inh pH 4.5
-3%	6.0%	-10%	Cc1ccc(S(=O)(=O)N2CCOCC2)cc1NC(=O)Cn1cc(C(F)(F)F)cc(Cl)c1=O	-7
-8%	-0.1%	-3%	O=C(NCC(c1cccnc1)N1CCOCC1)C1CCCCC1 (centres undefined)	-1
nt	?	?	O=c1oc2ccc3ccccc3c2cc1-c1nc2ccccc2o1	nt
-4%	0.3%	9%	COc1ccccc1NS(=O)(=O)c1cccc(NC(=O)c2nc3nc(C)cc(C)n3n2)c1	-5
1%	-0.8%	-6%	COc1ccc(NC(C)=O)cc1CNC(=O)CN1CCOCC1	nt
11%	-5.2%	23%	COc1ccc(C(C(=O)NCc2ccccc2)N(Cc2cccs2)C(=O)c2cnccn2)cc1 (centres undefined)	4
-31%	0.5%	19%	Cc1cc(C)nc(Nc2nc(=O)c3ccccc3s2)n1	1
1%	0.3%	7%	COC(=O)C1=C(N)Oc2cc(C)n(C)c(=O)c2C1c1ccc(Cl)c(Cl)c1 (centres undefined)	-7
1%	-1.4%	1%	CN(C)CCCNC(=O)N1c2ccccc2C=Cc2ccccc21	nt
-13%	-1.2%	30%	CC(=O)Nc1nc2c(ccc3ccccc32)s1	nt
-19%	-1.7%	-7%	COc1cccc(CN(C)C(=O)Cc2c[nH]c3ccccc23)c1	nt
nt	0.1%	1%	CC(C(=O)N1CCN(C(=O)c2ccco2)CC1)N1C(=O)NC2(CCCCC2C)C1=O (centres undefined)	nt
-2%	1.0%	-4%	COCc1c(Br)c(C)nc2sc3c(=O)[nH]nnc3c12	nt
-58%	?	?	CCOc1ccc2nc(N3CCOCC3)nc(C)c2c1	?
0%	4.0%	-1%	c1ccc2c(NCC3CCCO3)nc(N3CCOCC3)nc2c1 (centres undefined)	?
1%	-0.7%	-11%	O=S(=O)(c1ccc(Cl)c2ccccc12)N1CCCC1	-19
-3%	-1.4%	-15%	COc1cc(OC)nc(NC(=O)NS(=O)(=O)c2ccc(OC(F)(F)F)cc2)n1	0
0%	-2.0%	5%	O=C(CN(c1ccccc1)S(=O)(=O)c1ccccc1[N+](=O)[O-])Nc1ccccc1C(=O)N1CCOCC1	5
-1%	-2.2%	-7%	CC(C)c1ccc(N2C(=NC(=O)C3CC3)SC3CS(=O)(=O)CC32)cc1 (centres undefined)	nt
-1%	-1.2%	5%	COCCNC(=S)N(c1ccccc1)C(C)C	2
-4%	0.7%	1%	NC(=O)CC[C@@H]1NC(=O)[C@H](Cc2ccc(O)cc2)NC(=O)c2cc([N+](=O)[O-])cc(F)c2OCC[C@@H](C(N)=O)NC1=O	3
nt	0.1%	1%	CC(C)NC[C@H](O)COc1ccc(CC(N)=O)cc1	-2&-3&1&-8&5&6
0%	0.2%	-12%	CCOC(=O)C1CCCN(C(=O)COc2ccc(N(C)S(=O)(=O)c3ccc(F)cc3)cc2)C1 (centres undefined)	-2
-10%	-4.0%	-29%	COc1ccc(Cl)cc1S(=O)(=O)n1cnc2ccccc21	-2
0%	?	-3%	CCOC(=O)C1=C(C)Nc2nnnn2C1c1cccnc1 (centres undefined)	3
0%	-3.9%	23%	CCOC(=O)C(C(=O)OCC)C(=O)c1cc(OC)c(OC)c(OC)c1	-3
nt	5.6%	-13%	Cn1c(N)c(C(=O)COC(=O)Cc2cccc(C(F)(F)F)c2)c(=O)n(C)c1=O	nt
-3%	6.5%	5%	O=C(O)CSc1nc2ccccc2n1-c1ccccc1	7
-25%	-7.0%	-7%	O=C(NNC(=O)c1ccc(O)cc1O)c1ccc(Cl)cc1	3
-6%	?	-10%	CCSc1nc2c(c(=O)[nH]c(=O)n2C)n1C/C=C(/C)Cl	-5
